Bead autofluor: counter-screen for toxin protease inhibitors: compound fluorescence | compound autofluorescence counterscreen, microsphere flow cytometry; hits give high values | fluorescence intensity (no concentration beside the values) | 3.1% of 360,000 active;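 active means at least 3 SD above the mean of all compounds, about 16000 in these data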;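 further: 100 nL of 1 mM stock went into each well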
Starred values were filed as active, the others as inactive.

SMILES	Bead autofluor
CCC(c1nnnn1-c1ccc2c(c1)OCCO2)N1CCN(c2ccc(C)cc2)CC1 (centres undefined)	4042
CCc1nc2ccc(C(=O)Nc3cc(-c4ccccc4)ccc3OC)cn2c1N(CC)CCN(C)C	3875
Nc1ccn([C@@H]2O[C@H](C(=O)Nc3cc(C(F)(F)F)cc(C(F)(F)F)c3)[C@@H](O)[C@H]2O)c(=O)n1	5095
COc1ccc(S(=O)(=O)N(C)C[C@H]2OCCCC[C@H](C)Oc3ccc(N(C)C)cc3C(=O)N([C@H](C)CO)C[C@@H]2C)cc1	3354
CCc1ccc(OC2(C)CCN(Cc3ccc4c(c3)OCCO4)C2)cc1 (centres undefined)	3903
Cc1cc(C)c(OCC(=O)OCC(=O)NCc2ccco2)c(C)c1	3605
Cc1csc(SCC(=O)Nc2ccc(CC#N)cc2)n1	3806
CCCC1NC(=O)c2cccnc2-n2c1nc1cc(F)c(F)cc1c2=O (centres undefined)	3590
Cc1[nH]ncc1Nc1ccccc1C(C)C	6307
COc1ccc(C(=O)N(C)CCOc2ccc(Cl)cc2)cc1S(=O)(=O)N1CCCC1	4420
COCCNC(=O)C1(C)CCCN(Cc2ccc(Oc3ccccc3)cc2)C1 (centres undefined)	3942
Cc1cc(SCC(=O)N2c3ccccc3NC(=O)CC2C)nc2ccccc12 (centres undefined)	4046
CCc1nc2ccc(C(=O)NCCCn3ccnc3)cn2c1N(C)C(=O)COc1ccccc1	3938
O=C1NC(Cc2ccc(O)cc2)c2nc3cc(Cl)ccc3c(=O)n2-c2cc3ccccc3cc21 (centres undefined)	3671
C=C1C[C@@H]2C[C@@H]2CN(S(=O)(=O)c2ccc(C)cc2)[C@@H]1c1ccco1	6235
O=C(NN=Cc1ccc2c(c1)CCC2)c1ccccc1O	3922
COc1ccc(CCNC(=O)Nc2nc(C(N)C3CCCCC3)cs2)cc1OC (centres undefined)	3979
CNc1ncnc2c1ncn2[C@H]1CN(CCc2ccccc2)C[C@@H](CO)O1	3732
COc1ccc(S(=O)(=O)NCc2ccccn2)cc1C	3975
COc1ccc(OCCN2CCC(C(=O)NC(c3ccc(F)cc3)c3ccc4ccccc4n3)CC2)cc1 (centres undefined)	4142
NC(Cc1ccc(F)cc1)c1csc(Nc2nncc3ccccc23)n1 (centres undefined)	3896
O=S(=O)(NN=Cc1cccc(Cl)c1)c1ccccc1	5628
COc1ccc(-n2c(=O)c(CCC(=O)N3CCN(c4cccc(OC)c4)CC3)nc3ccccc32)cc1	3835
Cc1csc(SCC(=O)Nc2ccc(C)c(S(=O)(=O)N(C)C)c2)n1	3940
CCOC(=O)C1(C)CCCCCN1C(=O)c1ccc(C(F)(F)F)nc1C (centres undefined)	2787
SMILES	Bead autofluor
C[C@H](CO)N1C[C@H](C)[C@@H](CN(C)Cc2ccc3c(c2)OCCO3)OCc2cnnn2CCCC1=O	3792
Nc1[nH]c(C(=O)c2ccccc2)c(-c2ccccc2Br)c1C(=O)NCCc1c[nH]c2ccccc12	6206
CNc1cnc(-c2cccc(C(=O)N3CCOCC3)c2)cn1	3682
Nc1nc(N)c2cc(S(=O)(=O)c3ccc4ccccc4c3)ccc2n1	3562
CN(C)CCCN(C(=O)c1ccc(S(=O)(=O)N2CCCCCC2)cc1)c1nc2cc3c(cc2s1)OCO3	2867
CCOC(=O)[C@]12CCCC=C1N(Cc1ccc3c(c1)OCO3)C(=O)[C@H](CC(=O)NCC13CC4CC(CC(C4)C1)C3)C2	6072
O=c1c2ccccc2sn1-c1cccc(Cl)c1	3643
CNc1cncc(-c2ccoc2)n1	3887
CC(C)C[C@@H](COCc1cccc(Cl)c1)N1CCN(C(=O)c2ccc(C(F)(F)F)cc2)CCC1=O	6134
Cc1nc(C(F)(F)F)ccc1C(=O)N1CCC1(C)C(=O)NS(=O)(=O)c1ccccc1 (centres undefined)	2954
CCCCCCn1c(=O)n2n(c1=O)[C@@H]1CN(S(=O)(=O)c3ccc(C)cc3)C[C@]1(O)[C@@H](OC(=O)NC1CCCC1)C2	4535
O=C1NC(=O)C(c2ccccc2)(c2ccccc2)N1S(=O)(=O)c1ccccc1	3466
COc1ccc(-c2cnc3c(NC=O)cc(-c4ccccc4OC)cn23)cc1OC	3973
COc1ccc(-n2c(-c3ccc(C(C)(C)C)cc3)n[nH]c2=S)c(OC)c1	3666
COc1cccc(CNC(=O)[C@@H]2CCCN2C(=O)[C@H]2CCCCN2C(=O)c2cccc3ccccc23)c1	4085
C[C@@H](c1ccccc1)N1C[C@@H](COCc2ccccc2)Oc2cc(N3CCC[C@@H]3CO)ccc2S1(=O)=O	8412
NS(=O)(=O)c1ccc(CNC(=O)c2cc(S(=O)(=O)N3CCOCC3)ccc2N2CCCC2)cc1	3799
COc1cc(C23CCCN(CCC(C(C)(C)C)C2)C32OCCO2)cc(OC)c1OC (centres undefined)	6265
CCOC(=O)Nc1ccc2c(c1)N(C(=O)CN(C)C)c1ccccc1S2	3652
C[C@H]1CN([C@@H](C)CO)C(=O)CCCn2cc(nn2)CO[C@@H]1CN(C)S(=O)(=O)c1cccc(F)c1	3092
COc1ccc(S(=O)(=O)N(C)C[C@@H]2OCCCC[C@H](C)Oc3ccc(NC(=O)Nc4ccc(C(F)(F)F)cc4)cc3C(=O)N([C@H](C)CO)C[C@H]2C)cc1	2992
O=C1Nc2ccccc2NC(c2ccc3c(c2)OCO3)=C1N(Cc1ccc(F)cc1)C(=O)c1ccco1	5249
COc1ccc(NC(=O)COC(=O)CN2C(=O)C3CCCCC3C2=O)cc1 (centres undefined)	5383
COc1ccc(NC(=O)C2(C)CCN2C)cc1OC (centres undefined)	3676
CC(N)c1csc(Nc2ccc(S(C)(=O)=O)cc2)n1 (centres undefined)	3637
SMILES	Bead autofluor
CCOC1=C2[C@H](c3ccccc3)N(S(=O)(=O)c3ccc(C)cc3)[C@H](C(C)C)[C@H]2n2c(=O)n(-c3ccccc3)c(=O)n2C1	5894
CC(C)C[C@H]1CN(CCCC[C@H]2CNC(=O)C(=O)N2CC2CCCCC2)C(=O)C(=O)N1CCc1ccc(O)cc1	5868
CC(=O)Nc1cccc(NC(=O)c2ccccc2Cl)c1	3262
CCCC(CNC(C)=O)(C1=CCCCC1)c1ccccc1 (centres undefined)	3394
O=C1NC[C@H](Cc2ccc(O)cc2)N(C[C@@H]2CCCN2C[C@H](Cc2ccc(O)cc2)N2C[C@H](Cc3ccccc3)N(CC3CCCCC3)C(=O)C2=O)C1=O	4279
CCOC(=O)C1=CCN(S(=O)(=O)c2cccc(Cl)c2)C1c1ccc(C)cc1 (centres undefined)	5891
CC(C)Oc1ccc(S(=O)(=O)N2CCCCC2)cc1NC(=O)C1=NN(c2ccccc2)C(=O)CC1	3653
COc1cc(/C=C/C(=O)OCC(=O)N2CCCCCC2)cc(OC)c1OC	3919
OC(c1cc(F)cc(Cl)c1)c1ncc(-c2ccccc2Cl)[nH]1 (centres undefined)	3879
COc1ccc(Cl)cc1C1=NOC2(CCC2)C(=O)N1Cc1cccc(C#N)c1	5890
O=C(CN1C(=O)CSc2ccc(S(=O)(=O)N3CCOCC3)cc21)NCCc1ccccc1	3632
CC1(C(=O)NCC2CC2)Cc2c(-c3ccc4c(c3)OCO4)ccnc2O1 (centres undefined)	2947
CCOc1ccc(CCN2C(=O)C(=O)N([C@@H](CC(C)C)CN3CCC[C@H]3CN3C(=O)C(=O)NC[C@@H]3Cc3ccc(O)cc3)C[C@@H]2Cc2ccccc2)cc1	5305
CC(C)N1CCCC(C)(C(=O)Nc2nc3ccccc3n2C)C1 (centres undefined)	3448
CCCNC(=O)C1(C)CCN(Cc2ccc3ccccc3c2Br)C1 (centres undefined)	3745
COc1ccc(CNC(=O)c2[nH]c(C(F)(F)F)nc2-c2ccccc2)cc1	5841
COc1ccccc1-c1ccc2c(c1)C(C)(Cc1cccc(C#N)c1)C(=O)N2 (centres undefined)	3855
COc1ccc(CCN2C(=O)CCC2(C)c2nnnn2-c2c(C)cccc2C)cc1OC (centres undefined)	6118
O=C(NC(Cc1ccccc1)C(=O)N1CCN(c2ccc(F)cc2)CC1)c1ccccc1 (centres undefined)	3474
O=C(O)c1ccc(Cl)cc1NC(=O)C1CCN(S(=O)(=O)c2cccs2)CC1	3642
O=C(NCc1cccnc1)c1cc(C2CCCCN2S(=O)(=O)c2ccccc2)on1 (centres undefined)	3649
CC(C)c1ccc(Nc2ncc3c(n2)CCN(C(=O)Nc2ccc(F)c(Cl)c2)C3)cc1	3823
O=C(CSc1nc(=O)n(CCN2CCOCC2)c2c1CCCC2)Nc1ccccc1Cl	3442
COc1ccc(CNC(=O)c2ccccc2NC(=O)C2=C(C)OCCS2)cc1	4290
Cn1nc(C2CC2)cc1NC(=O)C1(C)CCN1C(=O)c1ccccc1CCc1ccccc1 (centres undefined)	2985
SMILES	Bead autofluor
Cc1ccccc1Cn1c(C)c(C(=O)N(C)Cc2ccc(F)cc2)sc1=O	5995
O=C(CC[C@H]1O[C@@H](n2cnc3c(NC(=O)c4ccccc4)ncnc32)[C@H](O)[C@@H]1O)NCc1ccccn1	6183
CCOC1=C2CN(S(=O)(=O)c3ccc(C)cc3)[C@H](c3cccc4ccccc34)C[C@H]2C(C#N)(C#N)C(C#N)(C#N)C1	5822
COc1ccc(Cl)cc1Cn1c(C)c(C(=O)NCc2ccc3c(c2)OCCO3)sc1=O	4032
Cc1ccc(/C(O)=C2\C(=O)C(=O)N(C)C2c2ccccc2)cc1 (centres undefined)	3775
Cc1ccc(N(CC(=O)NC(C)(C)C)C(=O)CCC(=O)Nc2ccccn2)cc1	2925
OC(c1ccc(Cl)c(F)c1)c1ncc(-c2ccccc2C(F)(F)F)[nH]1 (centres undefined)	3982
Cc1ccc(NC(=O)CSc2nc3cc(C(=O)NCC4CCCO4)ccc3c(=O)n2CC2CCCO2)cc1 (centres undefined)	3711
Cc1noc(C)c1NC(=O)Nc1ccc2c(c1)C(=O)N([C@H](C)CO)C[C@@H](C)[C@@H](CN(C)S(=O)(=O)c1cn(C)cn1)OCCCC[C@H](C)O2	3954
CCCC(=O)N1CCCC1(C)C(=O)Nc1cc(OC)ccc1OC (centres undefined)	4055
CCCC(=O)Nc1nnc([C@H]2C[C@H](O)[C@@H](CO)O2)s1	3739
OC[C@@H]1CN(Cc2ccc(Cl)cc2)C[C@H](n2cnc3c(NCc4ccco4)ncnc32)O1	3916
CC(C)(C)c1ccc(C(=O)N2CCC2(C)C(=O)Nc2cccc3ccccc23)cc1 (centres undefined)	3530
Cn1c(=O)c2c(ncn2CC(=O)OCC(=O)NCc2ccc(F)cc2)n(C)c1=O	2812
CCCCCn1nnnc1C1c2ccccc2C(=O)N1Cc1ccco1 (centres undefined)	6012
CCCNC(=O)C1(C)CCCN(Cc2cccn2C)C1 (centres undefined)	4008
CC1(C(=O)NS(=O)(=O)c2ccc3c(c2)CCO3)CCN1C(=O)Cc1ccc(-c2ccccc2)cc1 (centres undefined)	3933
CCc1c(N=O)c(-c2ccccc2)n(O)[n+]1[O-]	4030
CN(Cc1ccc(C(F)(F)F)cc1)C(=O)[C@H]1O[C@@H](n2ccc(=O)[nH]c2=O)[C@H](O)[C@@H]1O	4244
O=S1(=O)CC(N2CCCCC2)C1CN1CCCCC1 (centres undefined)	2933
CC(=O)c1ccc(N2CCN(C(=O)CNC(=O)c3ccc(Br)o3)CC2)cc1	3656
C[C@@H]1CNC(=O)c2c(C(=O)NCC(=O)OC(C)(C)C)ncn21	3903
COCc1cccc(-c2csc(C(C)(O)c3ccc(OC)cc3)n2)c1 (centres undefined)	3827
COc1ccc(C#Cc2cnc3c(c2)C(=O)N([C@H](C)CO)C[C@@H](C)[C@H](CN(C)C(=O)CN(C)C)O3)cc1	4133
CN1CCn2cnc(C(=O)NCCCCCNC(=O)OC(C)(C)C)c2C1=O	3669

Given as a markdown table: 13 of the compounds above
| structure | Bead autofluor |
| --- | --- |
| Cc1ccc(/C(O)=C2\C(=O)C(=O)N(C)C2c2ccccc2)cc1 (centres undefined) | 3775 |
| Cc1ccc(N(CC(=O)NC(C)(C)C)C(=O)CCC(=O)Nc2ccccn2)cc1 | 2925 |
| OC(c1ccc(Cl)c(F)c1)c1ncc(-c2ccccc2C(F)(F)F)[nH]1 (centres undefined) | 3982 |
| Cc1ccc(NC(=O)CSc2nc3cc(C(=O)NCC4CCCO4)ccc3c(=O)n2CC2CCCO2)cc1 (centres undefined) | 3711 |
| Cc1noc(C)c1NC(=O)Nc1ccc2c(c1)C(=O)N([C@H](C)CO)C[C@@H](C)[C@@H](CN(C)S(=O)(=O)c1cn(C)cn1)OCCCC[C@H](C)O2 | 3954 |
| CCCC(=O)N1CCCC1(C)C(=O)Nc1cc(OC)ccc1OC (centres undefined) | 4055 |
| CCCC(=O)Nc1nnc([C@H]2C[C@H](O)[C@@H](CO)O2)s1 | 3739 |
| OC[C@@H]1CN(Cc2ccc(Cl)cc2)C[C@H](n2cnc3c(NCc4ccco4)ncnc32)O1 | 3916 |
| CC(C)(C)c1ccc(C(=O)N2CCC2(C)C(=O)Nc2cccc3ccccc23)cc1 (centres undefined) | 3530 |
| Cn1c(=O)c2c(ncn2CC(=O)OCC(=O)NCc2ccc(F)cc2)n(C)c1=O | 2812 |
| CCCCCn1nnnc1C1c2ccccc2C(=O)N1Cc1ccco1 (centres undefined) | 6012 |
| CCCNC(=O)C1(C)CCCN(Cc2cccn2C)C1 (centres undefined) | 4008 |
| CC1(C(=O)NS(=O)(=O)c2ccc3c(c2)CCO3)CCN1C(=O)Cc1ccc(-c2ccccc2)cc1 (centres undefined) | 3933 |

(more compounds)
SMILES	Bead autofluor
NCc1csc(NC(=O)Nc2cccc(C(F)(F)F)c2)n1	3561
CN1CCN(C(=O)c2ccc(-c3cnn(C)c3)c3ccoc23)CC1	3340
COc1ccc(OC)c(C(O)c2ncc(-c3ccccc3OC)[nH]2)c1 (centres undefined)	2969
O=C(NCC1CCCCC1)c1ccc2nc([C@H]3C[C@H](O)[C@@H](CO)O3)[nH]c2c1	3919
C[C@@H]1CN([C@@H](C)CO)C(=O)CCCn2nncc2CO[C@H]1CN(C)Cc1ccc(Oc2ccccc2)cc1	3643
CCN(CC)S(=O)(=O)c1ccc(OC)c(NC(=O)c2cc([N+](=O)[O-])ccc2N2CCOCC2)c1	3939
O=C(Nc1nnc([C@H]2C[C@H](O)[C@@H](CO)O2)s1)NC(c1ccccc1)c1ccccc1	3636
O=C1CCN(C(=O)c2ccccc2)c2ccccc21	3426
C[C@@H]1CN([C@@H](C)CO)C(=O)CCCn2nncc2CO[C@@H]1CN(C)S(=O)(=O)c1ccccc1	3342
Cc1c(-c2ccccc2)n(O)c(-c2ccc(N(C)C)cc2)[n+]1[O-]	3512
CNC(=O)C[C@H]1C(=O)N(C2CCCCC2)C[C@@H]1C	4349

The list is partial. The share of hits here may be higher or lower than overall.
